# PINK1 expr mod – modulators of PINK1 expression. PINK1 immunofluorescence, high-content cytometry, 24 h. Potency, µM (series often up to 76.6 µM), without a hit: top-dose activation (PINK1 increase), hits mostly activators. 410,000 compounds, 0.2% hits. AID 624263; active = well fitted activation curve with a large enough effect; inconclusive = small, poorly fitted or top-dose-only effect; inactive = flat fitted curve, though single readings scatter; cell line not stated here;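 note: potency is the fitted concentration of half-maximal effect; % of control where 0% means no effect; nearly all actives have a fitted effect of over 65% in size; a mitochondrial uncoupler was the plate control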
#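 Stable cell line, 250 cells/well, 12 h attachment; compounds pinned at 5 concentrations, 24 h; CCCP control. Fixed with nuclear dye, primary antibodies 12 h at 10 degrees C, secondary plus cell stain; laser-scanning cytometer read.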
# TRPML1 blocker – inhibitors of human TRPML1 channel | Q9GZU1 | TRPML1-inducible cells, Ca2+ dye fluorescence, FDSS; active compounds read low; inhibition of EC80 agonist-evoked calcium signal | activity change, negative = inhibition, % (test concentration not listed) | 390,000 compounds, 0.02% hits | AID 624415; in the data active means activity change below about -50%; inconclusive means about -30% to -50%; inactive means above about -30%;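 note: stimulus is agonist 54-4 at its EC80 concentration; % is set by controls: 0 for no effect and ±100 for the full control effect; compound concentration not given in the record; the text of the record puts the active cut at -80%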
#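 Calcium fluorescence in TRPML1-DL cells induced overnight with Tet: a 110 s read after compound pin addition, then a 110 s antagonist read after challenge with 54-4 at 4 uM final (EC80).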
# TRPML1 agonist – agonists of human TRPML1 channel; Q9GZU1; TRPML1-expressing cells, Ca2+ dye fluorescence, FDSS; host cell line not named in the record; reference of the full effect not given here; activation, % (test concentration not listed); 410,000 compounds, 0.12% hits; in the data active = activation above about 50%; inconclusive = about 30% to 50%; inactive = below about 30%; note: 0% is about no effect; the text of the record puts the active cut at 80%
#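 Calcium fluorescence on an FDSS kinetic reader gave the read-out. Tet-induced TRPML1-DL cells were plated overnight, dye-loaded (Ca8 with quencher, 45-90 min, room temperature, dark), then read 110 s after compound addition, and again 110 s after 4uM final 54-4 (EC80).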
# ClpP mod – qHTS Assay for Activators of ClpP; ATP-dependent Clp protease proteolytic subunit (Bacillus subtilis (strain 168)), P80244; purified B. subtilis ClpP, FRET peptide cleavage, 20 min; Potency, µM (doses to about 57.5 µM), for inactives: top-dose activity change, negative = active; 340,000 compounds, 1.9% hits; active = well fitted falling curve with a large enough effect; inconclusive = small, poorly fitted or top-dose-only effect; inactive = no such curve, though single readings can be large or run the other way; note: potency is the fitted concentration of half-maximal effect; the source files actives as falling curves though it sought activators and does not explain the sign; nearly all actives have a fitted effect of over 65% in size; many hits overshoot -100%
# Target sequence (P80244 whole entry, looked up): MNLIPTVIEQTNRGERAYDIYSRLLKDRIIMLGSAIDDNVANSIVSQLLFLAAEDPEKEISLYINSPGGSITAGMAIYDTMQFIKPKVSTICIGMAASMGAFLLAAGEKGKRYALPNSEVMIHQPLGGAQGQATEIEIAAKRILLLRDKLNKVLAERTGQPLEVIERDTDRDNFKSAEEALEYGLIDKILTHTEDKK
#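 ClpP 10 microg/mL final, pH 8 Tris/KCl buffer with BSA, glycerol, Tween-20; compound pinned in; FRET-FV substrate; RT 20 min; Ex320/Em430; ΔFRET vs ADEP 5.8 microM, DMSO, no enzyme.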
# Sfp PPTase inh – blocks B. subtilis Sfp PPTase activity. 310,000 compounds, 3.5% hits. Potency, µM, for inactives: max response, negative = inhibition, most hits filed as inhibitors. AID 1490. Biochemical Sfp PPTase activity, qHTS. Q9F4F7; active = well fitted inhibition curve with a large enough effect; inconclusive = small, poorly fitted or top-dose-only effect, or another doubt; inactive = no such curve, though single readings can be large or run the other way;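 note: the enzyme is Sfp with the accession as filed and its product quenches rhodamine fluorescence; potency is the fitted concentration of half-maximal effect; 0% = enzyme reaction without inhibitor and -100% = no enzyme wells; top concentration of the series not given in the record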
#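 Fluorescence-quenching assay: 15 nM Sfp-PPTase preincubated 15 min at room temperature with compound, then 5 uM rhodamine-CoA and 12.5 uM BHQ-2-labelled YbbR peptide added. Fluorescence (ex 525/em 598 nm) read at start and after 30 min; difference gives rate.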
# TRPV1 PAM – potentiators of human vanilloid receptor 1 (TRPV1); 320,000 compounds, 0.02% hits; TRPV1-expressing cells, Fluo-8 calcium influx, capsaicin EC20 potentiation; host cell line not named in the record; control for the full effect not named in the record; potentiation, % at 8.33 µM; Q8NER1; active means potentiation above 80%; inconclusive means 30% to 80%; inactive means below 30%; note: 0% is about no effect
# Target sequence (Q8NER1 whole entry, looked up): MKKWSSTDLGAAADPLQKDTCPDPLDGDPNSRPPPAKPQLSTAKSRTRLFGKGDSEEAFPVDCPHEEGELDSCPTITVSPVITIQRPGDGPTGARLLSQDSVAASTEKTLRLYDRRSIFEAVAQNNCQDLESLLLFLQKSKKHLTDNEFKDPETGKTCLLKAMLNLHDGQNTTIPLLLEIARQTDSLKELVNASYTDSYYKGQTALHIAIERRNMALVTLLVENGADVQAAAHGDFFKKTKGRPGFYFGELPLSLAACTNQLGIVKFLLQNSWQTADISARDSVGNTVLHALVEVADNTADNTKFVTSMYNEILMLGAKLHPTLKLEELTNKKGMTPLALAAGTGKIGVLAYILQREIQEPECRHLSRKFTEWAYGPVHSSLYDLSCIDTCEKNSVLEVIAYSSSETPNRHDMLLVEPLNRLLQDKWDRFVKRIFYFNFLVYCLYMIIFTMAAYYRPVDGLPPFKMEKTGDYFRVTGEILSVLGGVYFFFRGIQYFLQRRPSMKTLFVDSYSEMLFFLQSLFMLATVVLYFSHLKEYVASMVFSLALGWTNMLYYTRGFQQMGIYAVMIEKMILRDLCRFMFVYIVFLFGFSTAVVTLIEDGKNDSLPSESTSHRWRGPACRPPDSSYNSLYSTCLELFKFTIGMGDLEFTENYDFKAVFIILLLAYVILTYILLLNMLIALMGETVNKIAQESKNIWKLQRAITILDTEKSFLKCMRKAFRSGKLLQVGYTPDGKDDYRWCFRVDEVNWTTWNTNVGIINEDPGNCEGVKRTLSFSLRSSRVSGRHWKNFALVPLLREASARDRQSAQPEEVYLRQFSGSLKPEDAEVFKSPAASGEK
#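 TRPV1-expressing cells were cultured overnight at 35.5C and loaded with Fluo-8 calcium dye for 40 to 90 min at room temperature. After a 10 s baseline, compound was added and calcium influx was read kinetically for 3 min (ex 480/em 520 nm).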
# Menin-MLL FL inh – inhibitors of human menin-MLL interaction, wild-type MLL peptide. AID 1766. Fluorescence polarization, fluorescein-MLL peptide displacement from menin. 290,000 tested, under 10 active. FP activity change, % at 61.4 µM; inconclusive = falling polarisation curve, or a change in total fluorescence; inactive = total fluorescence flat and polarisation flat or rising; no compound was filed as active; the % refers to the polarisation; negative = inhibition;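 note: % of control where 0% means no effect; inhibitors lower the polarisation; unlabelled MLL peptide was the positive control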
# * = called active by the depositor; ? = inconclusive; / = not tested or not shown; & = joins results of further samples; [ ] = dose if it differs, or a comment.
SMILES	PINK1 expr mod	TRPML1 blocker	TRPML1 agonist	ClpP mod	Sfp PPTase inh	TRPV1 PAM	Menin-MLL FL inh
CC(C)(C)NC(=O)C(c1ccncc1)N(C(=O)Cn1nnc(-c2ccc(F)cc2)n1)c1cccc(F)c1 (configuration not stated)	-2.8%	20.8	-0.2	-26.5%	18.9%	-0.8	1.3
Cc1nc(Nc2ccccc2)sc1-c1ccccc1	2.3%	4.6	4.3	-8.7%	?	-2.5	0.1
COc1cc(/C=N/NC(=S)NCc2ccccc2)ccc1OCC#N	-1.0%	10.5	1.3	-3.2%	36.1%[activator]	13.8	2.8
CC(=O)c1ccc(NC(=O)c2ccc(C)c(S(=O)(=O)N3CCOCC3)c2)cc1	4.9%	-15.2	-0.8	-0.6%	10.0%	-13.2	0.1
COc1nnc(-c2ccc(N3CCCCC3)c(NC(=O)c3ccc(Cl)cc3)c2)c2ccccc12	0.3%	2.0	1.9	-6.6%	/	/	/
CC(=O)NC(Cc1ccccc1)C(=O)OCC(=O)c1ccc(Cl)cc1 (configuration not stated)	-0.4%	-12.2	0.2	-0.9%	-3.8%	10.9	3.1
CCCOc1ccc(F)cc1-c1cc(C(=O)NCc2ccc(C(F)(F)F)cc2)[nH]n1	8.1%	/	2.1	-21.6%	/	/	/
CCn1c(SCC(=O)Nc2nccc(C)n2)nc2ccccc21	-2.7%	-4.2	-1.0	/	4.6%	-9.1	2.8
CCCn1c(N)c(N(CCOC)C(=O)c2cc3c(s2)CCC(CC)C3)c(=O)[nH]c1=O (configuration not stated)	-0.2%	-16.7	0.5	12.6µM*	/	5.5	/
CCCCC[C@H]1CN(Cc2ccccc2)C(=O)[C@@H]1CC(=O)NCc1ccccc1	0.1%	33.0	-0.3&0.5	2.3%&0.0%	0.1%	-12.9	-1.7
CC(C)C(=O)Nc1nnc(SCC(=O)NCc2ccc3c(c2)OCO3)s1	-0.9%	-8.5	-0.2	/	14.6%	0.7	6.4
CCCCN(C)c1c(N2CCC(C(=O)OCC)CC2)c(=O)c1=O	-0.6%	-0.2	0.8	-0.6%	5.7%	-0.9	1.2
Cc1onc(-c2c(F)cccc2Cl)c1C(=O)OCC(=O)Nc1cccc(S(=O)(=O)N(C)C)c1	1.6%	-29.3	1.3	0.7%	/	/	/
CN(C)S(=O)(=O)c1cccc(NC(=O)CCc2nc3cc(S(=O)(=O)N4CCOCC4)ccc3n2C)c1	-1.8%	-5.2	0.7	-7.5%	/	-2.7	/
COc1cc(NC(=O)Cc2ccccc2)ccc1NC(=O)Cc1ccccc1	7.2%	-15.0	0.8	-1.7%	4.6%	-10.9	0.9
COc1ccc(C(=O)CSc2nnn(-c3cccc(NC(C)=O)c3)n2)cc1	2.7%	3.6	2.7	/	4.9%	10.6	-1.9
Cc1cccc(-n2c(C)nc3cc(C(=O)NCCN4CCOCC4)ccc32)c1	1.8%	17.2	-0.4	0.2%	/	/	/
CCOC(=O)c1cnc2c(C)c(Cl)ccc2c1Nc1ccc(N2CCOCC2)cc1	-1.7%	0.0	0.8	0.8%	/	/	/
Cc1cc(=O)n2c(C)n[nH]c2n1	-0.3%	20.8	-0.2	0.6%	-10.5%	7.0	5.7
COc1ccc(OC)c(S(=O)(=O)NCC(=O)O)c1	0.3%	-0.3	0.0	-1.1%	13.5%	16.3	-0.4
O=C1COc2ccc(C(=O)COC(=O)CNC(=O)c3ccccc3)cc2N1	1.9%	4.9	0.1	-2.2%	13.8%	5.2	-0.5
COC(=O)COc1ccc(S(=O)(=O)NCc2ccc3c(c2)OCO3)cc1	3.6%	9.3	0.7	1.2%	11.3%	-3.8	1.5
COc1cc(/C=N/NC(=O)c2cc(C34CC5CC(CC(C5)C3)C4)[nH]n2)ccc1O	2.9%	-20.9	3.5	-11.5%	5.7%	-12.5	7.6
COc1cc(OC)c(OC)cc1/C=C/c1nc2cc3ccccc3cc2c(=O)n1-c1ccccc1Br	0.0%	-11.1	0.1	-1.0%	/	/	/
O=C(CN1C2CCCC1CC(NC(=O)C1CCCCC1)C2)Nc1ccccc1 (configuration not stated)	1.8%	-1.6	0.1	/	7.5%	1.7	-1.7
O=C(C1CCCO1)N1CCN(C(=S)Nc2cccc(Cl)c2)CC1 (configuration not stated)	0.5%	-13.1	-0.2	-7.5%	-12.0%	2.9	4.5
COc1ccc(N(CC(=O)NCc2ccco2)C(=O)CCC(=O)Nc2ccccn2)cc1	2.8%	53.4	-1.6	-1.2%	18.0%	3.8	0.3
Cc1cccc(NS(=O)(=O)c2ccc(C)c(C(=O)NNC(=O)c3csc(N4CCOCC4)n3)c2)c1	-0.1%	-10.3	0.5	-1.8%	/	/	/
O=C(NCC1CCCO1)c1ccccn1 (configuration not stated)	1.0%	-13.9	0.1	-2.0%	3.7%	-9.3	0.5
COc1ccc(OCc2cc(C(=O)N(Cc3nccn3C)C(C)C)no2)c2ccccc12	0.8%	9.7	0.0	-1.9%	-0.4%	20.9	-0.2
Cc1ccccc1Nc1nnc(SCC(=O)NCc2cccs2)s1	-1.7%	-0.6	3.2	-0.6%	10.1%	12.5	-1.8
O=C(COC(=O)C12CC3CC(CC(Br)(C3)C1)C2)Nc1cccnc1Cl	0.5%	5.5	-0.1	-1.5%	-1.5%	-14.0	-0.6
Cc1cc(NC(=O)C(C)Oc2ccc(Cl)cc2Cl)no1 (configuration not stated)	0.6%	-5.6	2.2	/	15.5%	3.0	-0.3
CC(=O)C1(O)CCC2C3CCC4CC(O)CCC4(C)C3C(=O)CC21C (configuration not stated)	0.9%	-13.9	0.4	-2.4%	/	/	/
COc1ccccc1N(C)S(=O)(=O)c1ccc(C(=O)Nc2nc(C)c(C(C)=O)s2)cc1	?	-4.2	-0.9	25.7%	/	-3.4	/
S=C(Nc1ccc2c(c1)OCO2)Nc1ccccc1Cl	2.0%	/	/	-1.3%	17.8µM*	7.9	2.7
CN1CCN(c2oc(-c3ccc(COc4ccc(Cl)cc4)o3)nc2C#N)CC1	-1.3%	0.2	0.2	35.5µM*	/	/	/
Clc1ccc(-c2noc3ncnc(NCCc4ccccc4)c23)cc1	-4.9%	-15.8	1.9	1.3%	/	/	/
COc1ccc(CNC(=O)COc2ccc(S(=O)(=O)N3CCOCC3)cc2C)cc1	2.0%	-10.7	-1.5	-0.1%	17.4%	24.2	-0.9
CCc1ccccc1-n1c(N)c(C(=O)OC)c2nc3ccccc3nc21	-1.8%	4.2	1.2	3.6%	/	/	/
O=C(CSCc1cnn(-c2ccccc2)c1-n1cccc1)NCc1ccccc1F	0.8%	19.2	3.1	1.1%	/	/	/
COc1cccc(-n2c(=O)c3sccc3n(CC(=O)NC3CCCC3)c2=O)c1	5.7%	-9.9	-1.7	-3.6%	8.0%	4.6	2.2
CCCc1nc2c3ccccc3ccn2c1Cc1cccc(F)c1	2.3%	/	1.4	4.7%	/	/	/
COc1ccc(NC(=O)CC2C(=O)N(c3ccccc3)C(=O)N2CCc2cccs2)cc1 (configuration not stated)	-4.7%	-10.8	0.5	-2.8%	17.4%	8.2	9.3
CC1(C(=O)Nc2cccc(NS(C)(=O)=O)c2)Cc2c(-c3ccc(C(N)=O)cc3)ccnc2O1 (configuration not stated)	5.1%	/	0.3	-1.9%	/	/	/
COc1ccccc1CC(=O)Nc1ccc2nc(Nc3cccc(Cl)c3)cc(C)c2c1	2.3%	-12.2	-0.2	3.7%	/	/	/
COc1cccc(C(O)c2ncc(-c3cccc(C(F)(F)F)c3)[nH]2)c1 (configuration not stated)	1.8%	/	-0.9	-0.9%	/	/	/
Cc1cc(C2C(=O)CC(=O)CC2c2ccccc2)on1 (configuration not stated)	1.0%	-1.6	-0.7	0.4%	-15.7%	-3.5	11.1
CC1=C(CC(=O)c2ccc(Cl)cc2)C(=O)c2ccccc2C1=O	3.1%[38.3 µM]	-0.5	0.0	-0.7%	44.7µM*	/	4.2
Cc1ccc(-n2c(SCC(=O)Nc3ccc4c(c3)OCCO4)nc3c([nH]c4ccccc43)c2=O)cc1	0.0%	2.9	1.3	5.0%	/	/	/
CC(Sc1ccc(Cl)cc1)C(=O)NNC(=O)c1csc(N2CCOCC2)n1 (configuration not stated)	1.5%	2.5	0.0	-11.4%	9.8%	6.6	/
OCCC1CN(C/C(Cl)=C/c2ccccc2)CCN1C1CCCC1 (configuration not stated)	-1.2%	7.8	0.7	/	9.8%	7.3	-1.5
CC(C)COc1ccc(C(=O)Nc2cccc(-c3nc4ccccc4[nH]3)c2)cc1	21.1%	2.8	0.3	?	/	/	/
Cc1cccc(Oc2ccc(NS(=O)(=O)c3ccc(C)c(C(=O)O)c3)cc2)c1	3.1%	-6.6	0.2	1.3%	/	2.8	/
CC(=O)N1Cc2ccccc2C(C)CC12CCCC2 (configuration not stated)	2.4%	-8.9	-1.0	-1.5%	6.4%	-4.4	8.5
O=C1/C(=C\c2cccs2)N=C(c2cccs2)N1Nc1ccccc1	?	0.4	-0.1	0.1%	9.1%	7.4	?
CC1Cc2nc(SCC(=O)Nc3nccs3)n(Cc3ccccc3)c(=O)c2S1 (configuration not stated)	0.6%	-17.7	-0.6	1.1%	9.2%	-11.7	5.7
COC1(OC)C(/C=C/c2ccc(C)cc2)C(C#N)(C#N)C1(OC)OC (configuration not stated)	-2.1%	3.1	3.1	31.6µM*	/	/	/
COc1ccccc1N1CCN(C(=O)Cn2c(=O)nc(-c3ccccc3)c3ccccc32)CC1	-0.7%	-16.0	1.6	-17.3%	/	/	/
O=C(CSc1nnc(NC2CCCCC2)s1)NC1CCS(=O)(=O)C1 (configuration not stated)	-3.8%	0.1	1.0	-5.4%	0.1%	-9.3	-1.4

# (more compounds)
SMILES	PINK1 expr mod	TRPML1 blocker	TRPML1 agonist	ClpP mod	Sfp PPTase inh	TRPV1 PAM	Menin-MLL FL inh
O=C1C(Cl)=C(Nc2ccccc2O)C(=O)N1CCc1ccccc1	17.0%	-19.5	-0.2	-21.4%	11.2µM*	-22.7	17.6
CN(C)CCOC(=O)C12CC3CC(CC(C3)C1)C2	-1.1%	1.0	-0.3	0.5%	8.2%	3.9	0.7
Cc1cc(=O)cc(C)n1-c1ccccc1N	-0.7%	20.4	-0.8	1.7%	18.2%	7.6	-3.2
O=C(NN=Cc1ccc(N2CCOCC2)s1)c1ccc([N+](=O)[O-])cc1	15.8µM*	6.0	0.3	0.1%	/	/	/
